ALR inh – human ALR oxidase inhibition via reduced H2O2. P55789. purified ALR, DTT oxidation, H2O2 HRP-luminol luminescence. inhibition, % (no concentration beside the values). 290,000 tested, 3.8% active;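 active = mean and each replicate at 75% or more; inconclusive = only one of the two met; inactive = neither met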;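 also: stock transfer was 7.5 nL into about 7.5 µL; 0% = neutral wells and 100% = wells with inactivated enzyme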
Target sequence (P55789 whole entry, looked up): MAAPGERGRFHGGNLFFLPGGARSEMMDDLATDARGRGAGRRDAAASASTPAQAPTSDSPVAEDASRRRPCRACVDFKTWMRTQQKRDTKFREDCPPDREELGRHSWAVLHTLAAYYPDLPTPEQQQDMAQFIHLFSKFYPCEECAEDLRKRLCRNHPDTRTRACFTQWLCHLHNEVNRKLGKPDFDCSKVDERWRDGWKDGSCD
FGF22 binding – FGF22 (human) thermal shift binding. Q9HCT0. calls only at 9.99 µM. 340,000 tested, 1.5% active. AID 651658. recombinant FGF22 thermal shift, SYPRO orange fluorescence; percent of sucrose octasulfate shift, DMSO zero;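 active = melting point raised past a set limit in the mean and every replicate; inconclusive = no clear call; three in four hits are not shown here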
Target sequence (Q9HCT0 whole entry, looked up): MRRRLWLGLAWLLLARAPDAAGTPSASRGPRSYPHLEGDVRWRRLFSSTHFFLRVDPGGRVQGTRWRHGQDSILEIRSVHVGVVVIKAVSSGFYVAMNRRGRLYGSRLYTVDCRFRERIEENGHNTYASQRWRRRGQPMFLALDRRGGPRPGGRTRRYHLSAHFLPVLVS
AF4-AF9 inh – MLL-AF4/AF9 protein interaction inhibition; P42568; AlphaScreen, biotin-AF4 peptide binding to FLAG-AF9; inhibition, % at 10 µM; 350,000 tested, 0.47% active; AID 651704;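 active = every replicate reaching a set inhibition limit, whatever the replicate mean, cut at about 25% in these data; inconclusive = mean inhibition reaches that limit but some replicates miss it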;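 also: 0% = plate neutral control median and 100% = total signal loss; the record names both 10 and 1 µM as test concentration; the first replicate is given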
Target sequence (P42568 whole entry, looked up): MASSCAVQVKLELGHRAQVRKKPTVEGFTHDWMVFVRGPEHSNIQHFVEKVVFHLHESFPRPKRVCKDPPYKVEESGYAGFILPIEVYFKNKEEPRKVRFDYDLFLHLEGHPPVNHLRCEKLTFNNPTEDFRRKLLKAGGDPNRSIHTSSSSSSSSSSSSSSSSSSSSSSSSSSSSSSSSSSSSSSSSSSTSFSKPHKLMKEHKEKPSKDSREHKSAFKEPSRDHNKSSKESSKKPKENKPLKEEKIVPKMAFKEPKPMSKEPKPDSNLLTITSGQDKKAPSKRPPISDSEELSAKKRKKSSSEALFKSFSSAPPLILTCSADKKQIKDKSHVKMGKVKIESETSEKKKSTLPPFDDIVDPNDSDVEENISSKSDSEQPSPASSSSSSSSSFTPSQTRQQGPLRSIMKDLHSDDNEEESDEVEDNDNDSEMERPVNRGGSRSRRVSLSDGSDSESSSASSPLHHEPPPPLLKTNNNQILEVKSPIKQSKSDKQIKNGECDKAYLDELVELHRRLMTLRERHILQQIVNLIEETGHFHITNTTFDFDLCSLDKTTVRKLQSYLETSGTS
RanGTP-Impb inh – inhibitors of RanGTP-importin-beta interaction, primary screen, biochemical, FRET, CFP-Ran, YFP-importin-beta, homogeneous; cell-free CFP-Ran/YFP-importin-beta FRET ratio; inhibition, % (test concentration not listed); 300,000 tested, 1.1% active;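 active = most replicates above 15%; inconclusive = exactly half above 15%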;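 also: 0% = DMSO wells and 100% = Ran loaded with GDP instead of GTP; wells of about 40 µL received 100 nL stock; the first replicate is given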
Calb FLC – affects C. albicans growth with fluconazole. AID 1979. C. albicans CaCi-2 (fluconazole-resistant clinical isolate) + fluconazole, Alamar Blue growth, 48 h. 300,000 tested, 0.57% active. growth inhibition, % (no concentration beside the values);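 active = most replicates above 75%; inconclusive = exactly half above 75%; inactive = most below 75%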;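 also: all wells also contain fluconazole at 8 µg/ml as a sub-toxic cotreatment; 0% = median of DMSO wells and 100% = median of geldanamycin control wells; wells of about 8 µL received 7.5 nL stock; the first replicate is given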
Ecoli rRNA inh – inhibitors of bacterial rRNA selective over humanized ribosomes. E. coli WT GFP vs humanized-ribosome RFP mutants, fluorescence, 24 h; active compounds read low; DMSO median 0, no signal -100. GFP signal change (wild-type ribosome), % (test concentration not listed). 350,000 tested, 1.6% active;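 active = significant combined selectivity score with lowered wild-type GFP, culture density cut under 30%, mutant RFP and density less affected; inactive = any of these conditions unmet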; also: one replicate is shown; some compounds called inactive have numbers as strong as hits
T cruzi repl – blocks replication of Trypanosoma cruzi. T. cruzi beta-gal in NIH3T3, luminescence, 90 h. inhibition, % (no concentration beside the values). 300,000 tested, 1.4% active;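 active = mean inhibition across valid replicates above about 55%, limit read from the data; inconclusive = mean below that limit but half or more replicates reach it; inactive = mean below it, under half of replicates reach it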;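 also: signal also drops with host cell toxicity which is not excluded here; 0% = plate median of DMSO wells and 100% = zero luminescence signal; higher percent means less beta-gal luminescence so fewer parasites; stock transfer was 50 nL into about 50 µL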
Beta cell apopt – beta cell apoptosis inhibition; protection from apoptosis, % (test concentration not listed); 300,000 tested, 0.8% active; INS-1E cytokine-induced death, ATP luminescence, 48 h; percent of positive-control rescue, neutral wells zero;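 active = all replicates at 75% or more, or half of them and the mean; inconclusive = half reach 75% but not the mean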;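 also: 0% = cytokine-treated negative control wells and 100% = positive control rescue; higher means more ATP so stronger rescue from cytokine killing; wells of about 40 µL received 100 nL stock; the first replicate is given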
Ecoli rRNA inh OD600 – further read-out of Ecoli rRNA inh, marked with its call; OD600 change, %; measured here: OD600 growth;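 optical density of the mix in the first replicate; 0 = DMSO median and -100 = no signal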
Ecoli rRNA inh RFP – recorded beside Ecoli rRNA inh, whose call it bears; RFP signal change, %; measured here: RFP humanized mutant strains;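 first replicate; 0 = DMSO median and -100 = no signal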
Starred values were filed as active, the others as inactive; i = inactive; ? = inconclusive; / = not tested or not shown.

SMILES | ALR inh | FGF22 binding | AF4-AF9 inh | RanGTP-Impb inh | Calb FLC | Ecoli rRNA inh | Ecoli rRNA inh OD600 | Ecoli rRNA inh RFP | T cruzi repl | Beta cell apopt
O=C(Sc1cccc2cccnc12)c1ccccc1Br | / | i | 3.7 | 1.8 | 112* | -15 | -24 | 9.4 | -1 | 52
O=C(COc1ccccc1/C=C1\SC(=S)NC1=O)Nc1ccc(F)cc1 | 2 | i | -2.4 | / | / | -42 | -53 | 15 | / | 22
O=C(O)c1cccc(Nc2ncnc3sccc23)c1 | -42 | i | 1.0 | 4.5 | 7 | 14 | 3 | 2.8 | 3 | /
CC(C)(C)c1ccc2c(c1)OC(C(=O)N/N=C\c1ccccn1)CO2 (centres undefined) | -3 | / | / | -2.5 | 9 | / | / | / | -7 | 3
CC1CN(S(=O)(=O)c2ccc(NC(=O)CCCN3C(=O)c4ccccc4C3=O)cc2)CC(C)O1 (centres undefined) | / | i | 2.3 | 1.3 | 2 | 13 | 3 | -2.0 | -7 | /
C/C(CCC1CC(C)OC1=O)=N\NC(N)=O (centres undefined) | -3 | i | -2.0 | 1.9 | 1 | -7 | 1 | -1.5 | -3 | -1
COCC(=O)Nc1ccc(N(C)C)cc1 | / | / | / | -2.5 | 1 | / | / | / | -11 | -11
Cc1cccc(N(CC(=O)NCCSCc2ccco2)S(=O)(=O)c2ccccc2)c1 | -3 | / | / | -3.2 | -3 | / | / | / | 14 | 8
COc1ccc(C)cc1NS(=O)(=O)c1ccc(Cl)nc1 | -29 | i | -5.1 | / | / | 16 | 10 | 4.3 | / | -1
N/C(=N\OC(=O)CCCc1ccccc1)c1ccc(Br)cc1 | 8 | i | -1.7 | -2.2 | 0 | 8 | 6 | -1.7 | 9 | /
COc1ccc(C)cc1NC(=O)c1sc2ncnc(N3CCN(c4ccccn4)CC3)c2c1C | -14 | i | 3.2 | 1.6 | 2 | 30 | 13 | 5.0 | 14 | 22
COc1ccc(/C(C)=N/N2CCCCC2)c(O)c1 | -9 | i | -0.9 | -2.7 | 7 | 13 | 1 | -0.9 | -6 | -1
O=C(Cc1noc2ccccc12)NNC(=S)Nc1ccc(Cl)cc1 | / | i | 3.6 | 4.6 | 11 | 4 | 6 | 3.9 | -9 | 5
Cc1cc(C)c(OCCN(C)C)c(Cl)c1 | 0 | i | -2.4 | -1.8 | 15 | 6 | -1 | -0.3 | 30 | 1
O=C(Nc1ccc(N2CCCC2)c(Cl)c1)c1cccs1 | 1 | i | 13 | 8.1 | -27 | 9 | 5 | -0.1 | -2 | 8
O=C(Nc1ccc(Cl)cc1F)c1ccccc1Br | 12 | / | / | 1.8 | -2 | / | / | / | -10 | -6
COc1ccccc1C(=O)N1CCc2ccccc21 | -2 | / | / | 3.6 | 6 | / | / | / | -8 | -10
O=C(CSc1cccc[n+]1[O-])c1cc(Cl)ccc1Cl | 48 | i | -1.5 | 4.6 | 100* | -35 | -45 | -3.1 | 53 | 12
O=[N+]([O-])c1c(C(Cl)Cl)nn(-c2ccc(Cl)cc2)c1N1CCCCC1 | -1 | i | 16 | 1.7 | 81* | 4 | 10 | 7.4 | 15 | 13
O=C(Nc1cccc(Br)c1)c1ccc(Cl)c(S(=O)(=O)N2CCOCC2)c1 | -7 | i | 3.9 | 5.0 | -8 | -8 | -15 | 0.8 | 5 | /
Cc1ccc2cn[nH]c2c1NC(=S)NC(=O)c1ccccc1 | 4 | / | / | -0.3 | 29 | / | / | / | -10 | 6
COc1ccccc1/C=C/C(=O)NCCc1ccccn1 | -2 | i | -1.4 | -2.3 | -6 | 3 | 11 | -0.6 | -11 | 0
COc1ccccc1N(CC(=O)Nc1ccccc1C(=O)N1CCOCC1)S(C)(=O)=O | 0 | i | 3.1 | -8.0 | -3 | 0 | 16 | -2.5 | 1 | 0
COc1cccc(CNC(=O)c2nnn(CC(=O)Nc3c(C)cccc3C)c2N)c1 | -11 | i | -1.4 | -1.7 | -8 | 1 | 6 | -2.8 | 3 | -6
NS(=O)(=O)OCCCCCc1ccccc1 | -5 | i | -3.0 | 1.8 | -9 | -18 | -6 | -5.1 | 11 | 5
O=C(c1n[nH]c2c1CCC2)N1CCCC(Nc2cccc(F)c2)C1 (centres undefined) | 99* | i | 1.3 | 4.8 | -1 | 2 | -2 | 2.7 | 9 | -5
COc1ccc(S(=O)(=O)N(C)C)cc1NC(=O)COC(=O)c1nn(C)c(=O)c2ccccc12 | 4 | i | -2.2 | 0.6 | 6 | 11 | 2 | 6.0 | -7 | -1
Cc1occc1-c1nnc(SCC(=O)N2c3ccccc3CCc3ccccc32)n1C | -5 | / | / | -5.5 | 9 | / | / | / | 2 | 4
CC(NS(C)(=O)=O)C(c1cccs1)N1CCN(c2ccc(F)cc2)CC1 (centres undefined) | 98* | i | 12 | -0.6 | 26 | -10 | -15 | 4.2 | -40 | -2
CCOC(=O)C1=C(C)Nc2ccccc2N/C1=N\S(=O)(=O)c1cc(C(=O)O)ccc1Cl | 10 | i | -2.4 | / | / | 7 | 14 | -0.6 | / | -2
O=C(C1CCCN1C(=O)c1cccs1)N1CCN(S(=O)(=O)c2ccc(F)cc2)CC1 (centres undefined) | -1 | i | -1.3 | / | / | 16 | 7 | 3.8 | / | 0
Cn1c(=O)c2c(nc3n2CC(CO)O3)n(C)c1=O (centres undefined) | -5 | i | 3.3 | 0.4 | -1 | 3 | 4 | -2.6 | 5 | -1
O=C1/C(=C/c2cccnc2)SC(=S)N1N1CCOCC1 | -1 | i | 1.6 | -5.6 | -4 | 5 | 9 | -2.5 | 4 | /
CC1CN(c2snnc2C=C2C(=O)OC(C)(C)OC2=O)CC(C)O1 (centres undefined) | -16 | i | -3.6 | 1.2 | -6 | 12 | 5 | -0.5 | -7 | 2
COc1cccc(C2=CC(=O)CC(C)(C)C2)c1 | -6 | i | 0.7 | / | / | 7 | 0 | -0.1 | / | -10
O=C1N/C(=N/N=C/c2ccccc2O)SC1Cc1ccc(F)cc1 (centres undefined) | / | i | / | 0.5 | -10 | 11 | 5 | -4.8 | 9 | 87*
CC1(C(=O)N/N=C/c2cc3c(cc2Br)OCO3)CC1(Br)Br (centres undefined) | -6 | i | 2.9 | -1.5 | 4 | / | / | / | 8 | /
N#CCCn1[nH]c(-c2ccccc2)cc1=O | -32 | / | / | -1.6 | 21 | / | / | / | -8 | -2
Cc1ccc(C(=O)Cn2nnc3ccccc32)cc1C | 1 | / | / | 2.8 | -10 | / | / | / | -5 | -2
CCCCN(C)C(=O)c1cn(C)c2ccc(S(=O)(=O)N3CCC(C)CC3)cc2c1=O | 0 | / | / | 1.8 | 10 | / | / | / | 3 | -4
O=S1(=O)C=C(SCc2ccc(Cl)c(Cl)c2)Nc2ccccc21 | / | / | / | 3.7 | 31 | / | / | / | 16 | -6
Nc1nonc1-n1nnc(C(=O)N/N=C/c2ccc(OCc3ccc(F)cc3)cc2)c1COc1ccccc1 | -11 | / | -34 | 0.8 | -2 | 19 | 6 | -6.1 | 1 | 7
COc1ccc(Nc2nc(N)nc(CSc3nnc(C)s3)n2)cc1 | -2 | / | / | 3.2 | 3 | / | / | / | -10 | -10
COCCn1c(C)nnc1SCC(=O)Nc1ccccc1[N+](=O)[O-] | -5 | i | -0.4 | 0.4 | ? | -1 | -17 | 0.0 | -11 | -4
Cc1oc2ccc(O)cc2c1C(=O)c1ccc([N+](=O)[O-])cc1 | ? | i | 13 | 11 | 24 | -14 | -9 | -3.8 | 2 | 3
COc1ccc(-n2cc(CNCCc3nc(C)cc(C)n3)c(-c3ccccc3Cl)n2)cc1 | -17 | i | 9.4 | -3.2 | -12 | -14 | -20 | 1.5 | 34 | -3
O=C(CSc1nnc(SCc2ccccc2)s1)N/N=C/C=C\c1ccco1 | 97* | i | 0.0 | -2.7 | -1 | 0 | -3 | 0.6 | -6 | -6
CC(C)(C)[C@@H]1C=C(C(N)=O)O[C@H](OCCCCO)C1 | -12 | i | -9.0 | 5.5 | -13 | 20 | 6 | 2.5 | -7 | -9
Cn1nccc1C(=O)Nc1ccc2c(c1)OCO2 | -19 | i | -1.0 | 2.2 | 6 | 5 | 8 | -2.5 | -10 | 3
Cc1ccc(NC(=O)CN(C)C(=O)CSc2nnnn2C)cc1 | -4 | i | -5.9 | -4.0 | -7 | 16 | 9 | 3.2 | 3 | -6
(further entries)
SMILES | ALR inh | FGF22 binding | AF4-AF9 inh | RanGTP-Impb inh | Calb FLC | Ecoli rRNA inh | Ecoli rRNA inh OD600 | Ecoli rRNA inh RFP | T cruzi repl | Beta cell apopt
CCOC(=O)c1c(C)nc2c(c1-c1ccc(OC)cc1)C(=O)CC(C)(C)C2 | 28 | / | / | 5.6 | 1 | / | / | / | 2 | 5
Cc1ccc(Cl)c(OCC(=O)OC(C)C(=O)NC2CC2)c1 (centres undefined) | -4 | i | 4.8 | 1.2 | 1 | -3 | 4 | 1.6 | -6 | 3
CSc1nc2nc3c(c(=O)n2[nH]1)CCC3 | 2 | / | / | -2.0 | -1 | / | / | / | -4 | -10
COc1cccc(C(=O)/C=C/Nc2ccc(S(=O)(=O)Nc3nc(C)cc(C)n3)cc2)c1 | 2 | i | 1.1 | 2.6 | -8 | -21* | -3.7* | 0.8* | 4 | 23
CN(C(=O)CSc1nc2[nH]ncc2c(=O)[nH]1)c1ccccc1 | -2 | i | -0.2 | -1.1 | -2 | 1 | 17 | -3.1 | -1 | -5
CC(C)(C)c1ccc(OCCN2CCCC2)cc1 | -1 | / | / | 6.3 | 2 | / | / | / | 43 | -7
Cc1c(S(=O)(=O)c2ccccn2)c(N)n(Cc2ccccc2Cl)c1C | -23 | i | 10 | 0.5 | -5 | 3 | 7 | 11 | 3 | -4
COc1ccccc1/C=C\C=N\n1c(C2CCCCC2)n[nH]c1=S | 2 | / | / | 0.6 | -12 | / | / | / | 0 | -6
CCOC(=O)C1CCN(S(=O)(=O)c2ccc3c(c2)N(C(C)=O)CC(C)S3)CC1 (centres undefined) | -20 | i | 2.5 | 2.1 | 12 | -18 | -12 | 1.2 | -8 | 0
COc1ccc2c(c1)c(=O)c(Br)c(C)n2Cc1ccccc1 | / | / | / | 2.0 | -1 | / | / | / | 5 | 5
O=C(NCc1ccccc1)c1ccc(CS(=O)Cc2ccc(Cl)cc2)o1 (centres undefined) | -2 | i | 0.3 | 0.2 | -5 | -2 | -8 | -2.9 | 2 | -1
COc1ccc(OCC(=O)Nc2ccccc2O)cc1 | / | / | / | -2.4 | ? | / | / | / | -33 | -20
Oc1c(C(c2cccs2)N2CCN(c3ccccc3)CC2)sc2ncnn12 (centres undefined) | 97* | i | 0.6 | ? | -15 | 1 | -13 | 6.7 | -6 | -6
O=S(=O)(c1ccccc1)c1cnn(-c2ccccc2)c1-c1ccc(Cl)cc1 | -5 | / | / | 0.3 | 35 | / | / | / | 27 | 21

Bioassay records: PubChem BioAssay, Broad Institute

A portion of the library; the hit share may differ from the screen's.
